VDR inhibitor: blocks the human vitamin D receptor | Potency, µM, for the others: max response, negative = inhibition, actives largely listed as inhibitors | hit rate 0.93% among 400,000 | VDR-SRC2-3 peptide fluorescence polarization, 2 h | P11473 | AID 504847; active = well fitted inhibition curve with a large enough effect; inconclusive = small, poorly fitted or top-dose-only effect, or another doubt; inactive = no such curve, though single readings can be large or run the other way; note: series mostly up to about 120 µM
Target sequence (P11473 whole entry, looked up): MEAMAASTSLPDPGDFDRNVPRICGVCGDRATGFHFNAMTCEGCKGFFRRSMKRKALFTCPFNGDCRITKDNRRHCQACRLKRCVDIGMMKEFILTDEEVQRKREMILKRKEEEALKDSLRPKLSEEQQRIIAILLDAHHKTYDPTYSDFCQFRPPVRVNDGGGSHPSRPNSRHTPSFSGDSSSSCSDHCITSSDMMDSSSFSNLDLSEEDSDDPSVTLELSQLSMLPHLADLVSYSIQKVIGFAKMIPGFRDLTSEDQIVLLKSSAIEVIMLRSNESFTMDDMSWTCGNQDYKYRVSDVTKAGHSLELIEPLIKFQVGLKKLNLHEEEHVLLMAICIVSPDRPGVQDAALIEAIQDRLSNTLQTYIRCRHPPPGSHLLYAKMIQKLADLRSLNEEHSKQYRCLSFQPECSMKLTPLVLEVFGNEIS
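After 23 nl compound addition and a short centrifugation, plates sat for 2 hours at ambient temperature; polarization of fluorescence then indicated loss of VDR binding to peptide SRC2-3.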
Active calls of the source: *; u = inconclusive; & = joins results of further samples; [ ] = dose if it differs, or a comment. % is set by controls: 0 for no effect and ±100 for the full control effect; potency is the fitted concentration of half-maximal effect. This is a subset, so the mix of outcomes need not match the whole.

entry	SMILES	VDR inhibitor
1	O=C(/C=C/c1ccccc1)NC(NC(=S)Nc1cccc(O)c1)C(Cl)(Cl)Cl (configuration not stated)	-17%
2	Cc1ccccc1NC1=C/C(=N\S(=O)(=O)c2ccc(C(=O)O)cc2)c2ccccc2C1=O	u
3	Cc1cc(C)c(S(=O)(=O)Nc2ccc3oc4c(c3c2)CCCC4)cc1C	13%
4	CCN1C(=O)N(c2ccc(Cl)cc2)C(C)=CC1(C)C	-10%
5	O=C(COC(=O)c1ccc2c(c1)S(=O)(=O)N=C1CCCCCN12)NCCc1ccc(F)cc1	-1%
6	CC1CCCCN1Cc1cnc(Cl)s1 (configuration not stated)	-14%
7	Cc1cc2nc(C)c(Cl)c(=O)n2[nH]1	-19%
8	[O-]/C(=C(\C(=S)NCc1ccccc1)[n+]1ccccc1)c1ccc(Cl)s1	-2%
9	CN(Cc1ccccc1)Cc1nc2c(c(=O)n(C)c(=O)n2C)n1Cc1ccccc1Cl	-1%
10	CCOc1cc(/C=N/N=C(N)N)ccc1OCc1ccc(Cl)cc1	-14%
11	COc1ccc2[nH]cc(CCNc3cc(-c4ccc5c(c4)OCO5)ncn3)c2c1	u
12	CC1(c2nnc(-c3ccccc3)o2)CC(c2cccc(Cl)c2)=NO1 (configuration not stated)	-18%
13	CCN(c1ccccc1)c1nc(C#N)nc(N(CC)c2ccccc2)n1	u
14	CN=c1scc(C)n1/N=C/c1ccc2c(c1)OCO2	12%
15	O=[N+]([O-])c1ccccc1CNC1CCCCCC1	2%
16	CCCCS(=O)(=O)c1sc2nc(C)cc(C)c2c1N	11%
17	Cc1nc(-c2ccccn2)sc1C(=O)Nc1ccc(Cl)c(Cl)c1	-1%
18	O=C1NC(=Nc2ccc(F)cc2)SC1Cc1ccc(F)cc1 (configuration not stated)	13%
19	COc1ccc(OC)c(Cc2nnc(CCC(=O)N3CCCCC3)o2)c1	-2%
20	CCN(CC)CC(=O)N1CCCC(C(=O)c2ccccc2OC)C1 (configuration not stated)	11%
21	COc1cccc(NC(=O)c2oc3ccc(S(=O)(=O)N4CCCCCC4)cc3c2C)c1	-6%
22	COc1cc(NC(=O)Cn2cnc3sc(C)c(S(=O)(=O)N4CCC(C)CC4)c3c2=O)cc(OC)c1OC	-17%
23	Cc1cn2c(=O)cc(COC(=O)c3cccc(NC(=O)COc4ccccc4)c3)nc2s1	7%
24	COC(=O)c1c(F)c(F)c(NCCO)c(F)c1F	7%
25	CC1CC(=O)Nc2ccccc2N1S(=O)(=O)c1ccc(Br)cc1 (configuration not stated)	-4%
26	O=C(NCCCN1CCOCC1)c1sc2cc([N+](=O)[O-])ccc2c1Cl	u
27	CC(C)CNc1nc(N)c([N+](=O)[O-])c(NC2CCCCC2)n1	7%
28	Cc1c(/C=N/NC(=O)c2cccs2)c2ccccc2n1Cc1ccccc1Cl	16%
29	CCOC(=O)CSc1nc2ccccc2c(=O)n1CC(C)C	-3%
30	O=P(O)(CCc1ccccn1)CN1CCOCC1	80%[activator]
31	CCN(Cc1ccccc1)C(=O)CCS(=O)(=O)c1ccc2c(c1)NC(=O)CO2	-19%
32	CC1Cc2cc(/C(O)=C3/C(=O)C(=O)N(Cc4ccco4)C3c3cccs3)ccc2O1 (configuration not stated)	1%
33	N#Cc1ccc(CN2CCCC3(CCN(C(=O)c4ccco4)CC3)C2)cc1	u
34	CCN1CCN(C(c2nnnn2Cc2ccc3c(c2)OCO3)C(C)C)CC1 (configuration not stated)	4%
35	COc1ccc2[nH]c(O)c(N=NC(=O)Cc3cccs3)c2c1	-1%
36	Cc1ccc(NC(=O)COC(=O)Cn2cnc3ccccc32)c(C)c1	-2%
37	Cc1ccc2nc(NC(=O)C3CCCN(S(=O)(=O)c4cccc5nsnc45)C3)sc2c1 (configuration not stated)	15%
38	O=C(COC(=O)Cc1c[nH]c2ccccc12)NCCc1ccccc1	6%
39	CCNC(=S)Nc1cc(Cl)ccc1Oc1ccccc1	-3%
40	O=c1cc(Cn2nnc(-c3ccc(Cl)cc3)n2)nc2sccn12	-8%
41	CCn1c(COc2ccc(OC)cc2)nnc1SCC(=O)Nc1cc(OC)ccc1OC	-14%
42	O=C(O)C1=CCCc2ccc(F)cc21	3%
43	CCCCN(C(=O)c1c(CC)noc1C)c1c(N)n(CC(C)C)c(=O)[nH]c1=O	-6%
44	O=C(NCCCCNC(=O)C(F)(F)F)C(F)(F)F	-17%
45	CN(C1CCCCC1)S(=O)(=O)c1ccc(NC(=O)c2ccco2)cc1	5%
46	CCCc1nnc(NC(=O)CN2C(=O)c3ccccc3C2=O)s1	8%
47	COc1ccc(Nc2nc(NCC3CCCO3)nc(N)c2[N+](=O)[O-])cc1 (configuration not stated)	-6%
48	O=C(Nc1ccc2c(c1)CN(Cc1ccccc1O)CC2)C1CCCO1 (configuration not stated)	-3%
49	Cc1ccc(S(=O)(=O)NC2CC2)cc1	-1%
50	Clc1ccc(-n2nnnc2CN2CCOCC2)cc1Cl	-10%

Next section:
entry	SMILES	VDR inhibitor
51	CCn1c(=O)c(C(=O)Nc2ccccn2)c(O)c2ccccc21	0%
52	O=C(OCC(=O)N1CCC(Cc2ccccc2)CC1)c1ccc[nH]c1=O	-8%
53	CC(NC(=O)C(=O)NN=C1CCCCCCC1)c1ccccc1 (configuration not stated)	12%
54	CCOc1ccc(-c2nnc(NC(=O)c3ccc(OCC(C)C)c(OC)c3)o2)cc1	7%
55	O=C(CNC(=O)c1cccc(F)c1)OCc1cc(=O)n2cc(Br)ccc2n1	2%
56	Cc1nc(SCc2ccc(Cl)cc2)ncc1C(=O)O	-12%
57	CC(Sc1nc2ccccc2c(=O)n1C)C(=O)N(C)C1CCCCC1 (configuration not stated)	-18%
58	NC(=S)NN=C1c2cc(OCCN3CCOCC3)ccc2-c2ccc(OCCN3CCOCC3)cc21	13%
59	Cc1ccc(CC(=O)O/N=C(\N)c2cccc([N+](=O)[O-])c2)cc1	-26%
60	O=C(O)c1ccc(S(=O)(=O)NCC2CCCO2)cc1 (configuration not stated)	2%
61	CC(C)(C)OC(=O)NN1CC(=O)N2Cc3ccccc3C[C@@H]2C1=O	-12%
62	COc1ccccc1N1CCc2c(C)nc3c(OC)cccc3c21	5%
63	CCC(C)C(NC(C)=O)C(=O)NC(=O)NC(c1ccccc1)c1ccccc1 (configuration not stated)	1%
64	CN(Cc1ccccc1)C(=O)CCc1ccccc1	-2%
65	CCCCCOc1ccc(C(O)C(CN2CCOCC2)c2ccccc2)cc1 (configuration not stated)	-17%
66	Nc1nc(N)c2[nH]c(-c3ccccc3)nc2n1	-12%
67	CCN(CC)S(=O)(=O)c1ccc(N2CCOCC2)c(NC(=O)c2ccc(NC(C)=O)cc2)c1	-3%
68	Cc1ccc2[nH]c3c(=O)n(CC(=O)NCCc4ccc(Cl)cc4)ncc3c2c1	-11%&3%
69	O=C(Cc1ccc(Cl)cc1)NN1C(=O)c2ccccc2C1=O	-17%
70	Cc1csc(NC(=O)C2CCCN(S(=O)(=O)c3cccnc3)C2)n1 (configuration not stated)	2%
71	CSCCC(NS(=O)(=O)c1ccc(Cl)cc1)C(=O)OCc1c(Cl)cccc1Cl (configuration not stated)	-28%
72	CCOc1ccc(/C=C/C(=O)Oc2ccccc2)cc1	-10%
73	CC(C)C(NS(=O)(=O)c1cccs1)C(=O)NCc1ccccc1 (configuration not stated)	-2%
74	CCOc1ccc(-n2c(C)nc3cc(C(=O)NCCC4=CCCCC4)ccc32)cc1	-8%
75	Cc1ccc(NC(=O)C2CC(=O)NC(N3CCCCC3)=N2)cc1Cl (configuration not stated)	6%
76	CCN(CC(=O)NCc1cccs1)C(=O)CCOc1ccccc1C	0%
77	COCCNC(=O)Cn1c(=O)n(Cc2ccco2)c(=O)c2ccccc21	7%
78	O=C(Nc1cc2c3c(c1)CC(=O)N3CCC2)c1c(F)cccc1F	-25%
79	FC(F)(F)c1nc2ncc(Cl)cc2[nH]1	-1%
80	CN(CCc1ccccc1)C(=O)c1ccc(NC(=O)Cc2ccc(NC(=O)C3CCN(C(=O)C4CCCC4)CC3)cc2)cc1	-12%

Grouped by structure, the entries above with bromine.
entry	SMILES	VDR inhibitor
25	CC1CC(=O)Nc2ccccc2N1S(=O)(=O)c1ccc(Br)cc1 (configuration not stated)	-4%
55	O=C(CNC(=O)c1cccc(F)c1)OCc1cc(=O)n2cc(Br)ccc2n1	2%

Next section:
entry	SMILES	VDR inhibitor
81	O=C(c1ccco1)N1CCN(Cc2c(F)cccc2Cl)CC1	-6%
82	Cc1ccc(SCc2nnc(NC(=O)c3ccccc3)s2)cc1	-6%
83	Cc1ccc(C(=O)NNC(=S)NC(=O)c2ccco2)cc1	17%
84	CC/C(=N\NS(=O)(=O)c1ccc(C)cc1)c1ccco1	11%
85	CC(=O)c1ccc(-c2ccc(C(=O)NC3CCCCCC3)o2)cc1	-15%
86	Cc1cnc([N+](=O)[O-])n1CCOC(=O)NC(=O)c1cccc(F)c1	-4%
87	CCC1CCCCN1CCCNC(=O)CCCOc1cc(=O)n(C)c2ccccc12 (configuration not stated)	-18%
88	O=C(CCCSc1nc2ccccc2[nH]1)N1CCN(c2ccccc2)CC1	4%
89	COc1cccc(C(c2c(C)[nH]n(-c3ccccc3)c2=O)c2c(C)[nH]n(-c3ccccc3)c2=O)c1OC	u
90	Cn1c(C(=O)OC(C(=O)NC2CCCCC2)c2ccncc2)cc2sccc21 (configuration not stated)	2%

Of the compounds above, these have two or more sulfur atoms.
entry	SMILES	VDR inhibitor
8	[O-]/C(=C(\C(=S)NCc1ccccc1)[n+]1ccccc1)c1ccc(Cl)s1	-2%
16	CCCCS(=O)(=O)c1sc2nc(C)cc(C)c2c1N	11%
22	COc1cc(NC(=O)Cn2cnc3sc(C)c(S(=O)(=O)N4CCC(C)CC4)c3c2=O)cc(OC)c1OC	-17%
37	Cc1ccc2nc(NC(=O)C3CCCN(S(=O)(=O)c4cccc5nsnc45)C3)sc2c1 (configuration not stated)	15%
70	Cc1csc(NC(=O)C2CCCN(S(=O)(=O)c3cccnc3)C2)n1 (configuration not stated)	2%
71	CSCCC(NS(=O)(=O)c1ccc(Cl)cc1)C(=O)OCc1c(Cl)cccc1Cl (configuration not stated)	-28%
73	CC(C)C(NS(=O)(=O)c1cccs1)C(=O)NCc1ccccc1 (configuration not stated)	-2%
82	Cc1ccc(SCc2nnc(NC(=O)c3ccccc3)s2)cc1	-6%

Additional structures follow:
entry	SMILES	VDR inhibitor
91	COc1ccccc1Nc1nc(-c2ccccc2F)nc2ccccc12	7%
92	COCCN(CCOC)c1nc(-c2ccc(C)cc2)nc2ccccc12	-15%
93	CCCNC(=O)NC(C)C12CC3CC(CC(C3)C1)C2 (configuration not stated)	-1%
94	O=[N+]([O-])c1ccc(NC(=S)NCCc2ccc(F)cc2)cc1	-14%
95	O=[N+]([O-])c1ccc(N2CCc3ccccc3C2)nc1	-20%
96	CCOC(=O)C1=C(C)NC2=C(C(=O)CCC2)C1c1coc2ccccc2c1=O (configuration not stated)	-1%
97	Fc1ccccc1CNC(=S)Nc1ccc(Cl)cc1	-24%
98	Cc1ccc(C(O)CN2C3=NCCN3c3ccccc32)cc1 (configuration not stated)	9%
99	Cc1ccc(COc2ccc(S(=O)(=O)N3CCCC3)cc2C(N)=O)cc1	2%
100	COc1ccc(/C=C/C(=O)OCC(=O)Nc2cccc(S(=O)(=O)NC3=NCCCCC3)c2)cc1	30%
101	CN(CCc1cnn(C)c1)Cc1cn(C)nc1-c1ccccc1F	-16%
102	COc1c(C)cc(C(=O)C2CCCN(C(=O)c3ccc4[nH]ccc4c3)C2)cc1C (configuration not stated)	-2%
103	CCc1cccc2c(C(=O)COC(=O)C3=NNC(=O)CC3)c[nH]c12	8%
104	CC(=O)N(c1ccccc1)C1SC(=O)N(c2ccccc2)C1=O (configuration not stated)	17%
105	COc1ccc(Cn2c(-c3ccc(C)cc3)nc3c(c(=O)c4ccccc4n3C)c2=O)cc1	-10%
106	O=C(CN1C(=O)c2ccccc2S1(=O)=O)NCc1ccco1	19%
107	CCOc1ccc2oc(C(=O)NCC(C)(C)CN(C)C)c(C)c2c1	-10%
108	NC(N)=NCCCC(NC(=O)c1ccccc1)C(=O)Nc1ccc2ccccc2c1 (configuration not stated)	0%
109	O=C(CN1CCN(Cc2ccccc2)CC1)NCCNc1ccc([N+](=O)[O-])cn1	2%
110	COc1cc(CN2CCN(S(=O)(=O)c3ccccc3)CC2)cc(OC)c1O	-15%
111	CSc1ccccc1NC(=S)NC1CCCCC1	0%
112	CN(C)CCCC(C)(O)C(C)(C)c1ccccc1 (configuration not stated)	-18%
113	COc1ccc(OCC(=O)NCCc2c[nH]c3ccccc23)cc1	-10%
114	COc1cc(CN2CC(=O)N(c3ccc(C)cc3)C2=S)cc(OC)c1OC	-14%
115	CCCNC(=O)c1ccccc1NC(=O)c1ccccc1SC	-14%
116	CCCCC(=O)Nc1cccc(-c2csc(-c3ccccc3)n2)c1	58%[activator]
117	C=CCn1c(C)cc(C(=O)CN2C(=O)c3ccccc3C2=O)c1C	-1%
118	COc1ccc2c(c1)cc(C(=O)N[C@@H](Cc1ccccc1)C(=O)N[C@@H](C)C(=O)O)n2C	-19%
119	Cc1ccc(-n2c(SCC(=O)OC(C)C)nnc2-c2cnccn2)cc1	-4%
120	CCCCn1c(N)c(N(CCOC)C(=O)CCCc2nc3ccccc3s2)c(=O)[nH]c1=O	-6%
121	Nc1n[nH]c2cc(=O)n(-c3cccc(C(F)(F)F)c3)nc12	-15%
122	CC(C)Cn1c(CN(Cc2ccccc2)Cc2ccccc2)nc2c1c(=O)n(C)c(=O)n2C	-8%
123	COc1ccc(Cl)cc1NC(=S)N1CCC(c2ccc(C)cc2)C1 (configuration not stated)	-9%
